# Screening data deposited in PubChem BioAssay by National Center for Advancing Translational Sciences (NCATS).
# TRPML1 blocker = human mucolipin-1 channel inhibition | Q9GZU1 | TRPML1-inducible cells, Ca2+ dye fluorescence, FDSS; stronger effect = lower value; inhibition of EC80 agonist-evoked calcium signal | activity change, negative = inhibition, % (concentration not given with the values) | 390,000 compounds, 0.02% hits; in the data active means activity change below about -50%; inconclusive means about -30% to -50%; inactive means above about -30%;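 also: stimulus is agonist 54-4 at its EC80 concentration; % is scaled to controls: 0 for no effect and ±100 for the full control effect; the text of the record puts the active cut at -80%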
# Target sequence (Q9GZU1 whole entry, looked up): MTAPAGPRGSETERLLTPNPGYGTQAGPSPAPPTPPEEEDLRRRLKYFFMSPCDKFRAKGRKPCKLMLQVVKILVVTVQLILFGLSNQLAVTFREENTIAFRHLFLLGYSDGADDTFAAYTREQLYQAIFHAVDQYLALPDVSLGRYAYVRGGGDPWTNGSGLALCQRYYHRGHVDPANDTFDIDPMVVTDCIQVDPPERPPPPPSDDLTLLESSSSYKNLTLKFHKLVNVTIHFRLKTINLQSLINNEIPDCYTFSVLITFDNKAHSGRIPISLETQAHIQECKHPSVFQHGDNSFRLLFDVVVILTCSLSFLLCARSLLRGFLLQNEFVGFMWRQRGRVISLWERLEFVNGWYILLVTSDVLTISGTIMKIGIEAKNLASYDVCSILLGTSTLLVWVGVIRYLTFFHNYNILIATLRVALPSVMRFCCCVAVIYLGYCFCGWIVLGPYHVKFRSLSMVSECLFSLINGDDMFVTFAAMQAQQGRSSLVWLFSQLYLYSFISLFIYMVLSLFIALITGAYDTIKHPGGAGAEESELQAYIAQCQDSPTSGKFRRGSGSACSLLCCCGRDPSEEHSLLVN
#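 Calcium fluorescence in TRPML1-DL cells induced overnight with Tet: a 110 s read after compound pin addition, then a 110 s antagonist read after challenge with 54-4 at 4 uM final (EC80).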
# PINK1 modulator = modulators of PINK1 expression; PINK1 immunofluorescence, high-content cytometry, 24 h; Potency, µM (series often up to 76.6 µM), without a hit: at the top dose activation (PINK1 increase), most hits filed as activators; 410,000 compounds, 0.2% hits; AID 624263; active = well fitted activation curve with a large enough effect; inconclusive = small, poorly fitted or top-dose-only effect; inactive = flat fitted curve, though single readings scatter; cell line not stated here;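 also: potency is read from the fitted curve at half-maximal effect; % of control where 0% means no effect; nearly all actives have a fitted effect of over 65% in size; a mitochondrial uncoupler was the plate control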
#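 A stable cell line was treated with compounds at 5 concentrations for 24 hours, with CCCP as control. PINK1 levels and mitochondrial localization were measured by immunofluorescence with mitochondrial, cell and nuclear markers after fixation, read by laser-scanning cytometry.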
# TRPML1 ag = human mucolipin-1 channel agonism | 410,000 compounds, 0.12% hits | activation, % (concentration not given with the values) | AID 624414 | TRPML1-expressing cells, Ca2+ dye fluorescence, FDSS; host cell line not named in the record; reference of the full effect not given here | Q9GZU1; in the data active = activation above about 50%; inconclusive = about 30% to 50%; inactive = below about 30%; also: 0% is about no effect; the text of the record puts the active cut at 80%
#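 Kinetic FDSS Ca2+ read in Tet-induced TRPML1-DL cells (ABD Ca8 dye plus quencher, 45-90 min RT loading): baseline, then compound, then 110 s agonist window; EC80 agonist 54-4 at 4uM final added afterwards for a 110 s antagonist window.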
# CtBP-E1A blk = blocks the CtBP interaction with E1A. 340,000 compounds, 0.49% hits. AlphaScreen GST-E1A/His-CtBP binding, 1536-well; stronger effect = lower value; control for the full effect not named in the record. activity change, % (no concentration beside the values); in the data active means activity change below about -65%; inconclusive means about -30% to -65%; inactive means above about -30%; also: % is scaled to controls: 0 for no effect and ±100 for the full control effect
#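 In 5 uL wells, 23 nL compound meets equimolar GST-E1A and His-CtBP (5X stock 125 nM each) for 2 h, 37 °C. Beads (5X, 50 ug/mL) then 1 h, 37 °C, dark.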
# D2 agonist = agonists of human D2 dopamine receptor (beta-arrestin); DiscoveRx PathHunter D2 beta-arrestin, luminescence, 90 min; 100% = 57 uM dopamine signal; activation, % (no concentration beside the values); 360,000 compounds, 0.084% hits; in the data active = activation above about 40%; inconclusive = about 15% to 40%; inactive = below about 15%; also: compound concentration not given in the record; the text of the record calls up to 30% inactive
# Target sequence (P14416 whole entry, looked up): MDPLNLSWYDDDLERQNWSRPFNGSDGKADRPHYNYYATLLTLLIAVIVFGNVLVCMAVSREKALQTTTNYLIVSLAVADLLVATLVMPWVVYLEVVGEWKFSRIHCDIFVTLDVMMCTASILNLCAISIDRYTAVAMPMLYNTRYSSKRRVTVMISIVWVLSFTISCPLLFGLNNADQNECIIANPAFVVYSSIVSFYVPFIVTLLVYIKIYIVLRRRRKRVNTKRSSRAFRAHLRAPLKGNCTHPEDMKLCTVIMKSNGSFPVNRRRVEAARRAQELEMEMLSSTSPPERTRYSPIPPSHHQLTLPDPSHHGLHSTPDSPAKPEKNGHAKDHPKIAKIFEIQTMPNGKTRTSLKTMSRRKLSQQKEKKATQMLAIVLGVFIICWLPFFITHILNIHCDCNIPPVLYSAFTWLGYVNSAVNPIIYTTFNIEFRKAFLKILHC
#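 DiscoveRx PathHunter D2 beta-arrestin cells (2,100/well) attached overnight, then compound-stimulated 90 min at 37 C in HBSS/10 mM HEPES/0.1% Tween-20 buffer; beta-galactosidase complementation read by luminescence after 1 h at ambient temperature. Dopamine 57 uM final (EC100) as control.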
# Six1-Eya2 inh = inhibitors of human Six1/Eya2 interaction. 360,000 compounds, 0.56% hits. Q15475+O00167. AlphaScreen GST-Six1/His-Eya2 binding, biochemical; stronger effect = lower value; control for the full effect not named in the record. activity change, % (concentration not given with the values). AID 651725; in the data active = activity change below about -65%; inconclusive = about -30% to -65%; inactive = above about -30%; also: % is scaled to controls: 0 for no effect and ±100 for the full control effect
#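 AlphaScreen luminescence read after one hour at 37 °C in darkness. Pin-transferred compounds met GST-Six1 and His-Eya2 protein (5X stock 250 nM/500 nM) plus glutathione donor and Ni-chelate acceptor beads (5X, 50 ug/mL).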
# An asterisk follows results filed as active; u = inconclusive; x = not tested or not shown; [ ] = remark or other dose.
# Second line of a record – Six1-Eya2 inh, PINK1 modulator, TRPML1 blocker, D2 agonist, CtBP-E1A blk, TRPML1 ag
NC(=O)c1ccc(NC(=O)CCc2nc3sc4c(c3c(=O)[nH]2)CCCC4)cc1
→ -24, 3.6%, 8, -4.8, -3, -0.8
CC(=O)c1ccc(S(=O)(=O)N2CCN(C(=O)CSC(=S)N3CCCC3)CC2)cc1
→ 4, 0.4%, 6, -0.9, 0, 1.1
CCOC(=O)N1CCN(S(=O)(=O)c2c(C(=O)N3CCCCC3)c(C)n(C)c2C)CC1
→ 2, -1.1%, -4, 4.1, -5, 0.5
COCCn1c(SCC(=O)Nc2nnc(C)s2)nnc1-c1ccoc1C
→ 5, 5.2%, -27, -1.2, 0, -0.6
COc1cccc(NC(=O)CSc2nc(C)cs2)c1
→ 0, 0.6%, -2, -4.0, 1, 5.1
CCCc1nc2c(C)cc(-c3nc4ccccc4n3C)cc2n1Cc1ccc(-c2ccccc2C(=O)O)cc1
→ -1, 0.4%, -5, 1.5, 4, -0.6
COc1ccc(S(=O)(=O)N2CCN(C(=O)CNC(=O)c3ccc4c(c3)OCO4)CC2)cc1
→ 0, -0.7%, -6, -2.4, 5, -0.7
CSc1cccc(NC(=O)c2cc(S(=O)(=O)N3CCCC3)cn2C)c1
→ -13, 0.2%, 10, 4.5, 0, 1.2
CCSC1=N/C(=C\c2ccc3c(c2)OCO3)C(=O)S1
→ 4, -2.4%, -1, 1.0, -4, 4.8
COc1cc(/C=C2\N=C(C)OC2=O)cc(OC)c1OC
→ 4, 2.8%, 14, -2.0, 6, 0.7
Cc1ccccc1C(=O)Nc1cccc(C(=O)Nc2ccccc2C(=O)O)c1
→ -4, -0.1%, -3, 2.9, x, 1.0
O=c1c2cccc(Cl)c2nc2n1Cc1ccccc1-2
→ 25, -1.2%, 2, 1.5, 1, -0.1
COc1ccc(C2c3[nH]c4ccccc4c3CCN2CCCn2cccn2)c(C)c1C (stereo not drawn)
→ -22, 0.7%, 13, -3.7, -10, -1.0
O=C(c1ccc2c(=O)n(CC3CCCO3)c(=S)[nH]c2c1)N1CCN(c2ccccc2)CC1 (stereo not drawn)
→ 4, -0.8%, 3, -1.4, 1, -0.9
COc1ccc2nc(C)cc(SCC(=O)Nc3c(C)cccc3C)c2c1
→ 5, -1.4%, -2, -2.9, 1, 0.0
CCc1ccccc1NC(=O)Cc1ccc(NC(=O)N2CCCCc3ccccc32)cc1
→ x, -0.5%, 1, x, x, -0.7
CCNC(=S)NNC(=O)CSc1nc2ccccc2[nH]1
→ -4, 0.4%, -3, -12, 7, -1.0
CCS(=O)(=O)N1CCc2cc(C(=O)Nc3ccc(OC)c(Cl)c3)ccc21
→ x, 4.1%, -12, x, x, -0.3
CCCN1CN(CCc2ccccc2)CNC1=S
→ 2, 2.8%, -13, 1.8, -5, 0.0
Cc1onc(-c2ccccc2Cl)c1C(=O)N1CCN(C/C=C/c2ccccc2)CC1
→ -5, x, -2, -0.1, 10, 0.9
Cc1cccc(C(=O)NCC(=O)NC2CCC(C)CC2)c1 (stereo not drawn)
→ 1, 1.6%, -22, -6.4, 5, 1.6
CN1C(=O)c2cccc3c(S(=O)(=O)N4CCCC4C(=O)O)ccc1c23 (stereo not drawn)
→ -11, 1.0%, 9, -1.3, -11, 0.3
Cc1c(NS(=O)(=O)c2cccc(C(=O)Nc3ccc(SC(F)F)cc3)c2)c(=O)n(-c2ccccc2)n1C
→ 3, 1.1%, 30, 2.3, 11, 3.4
COc1cc(/C=N/Nc2cccc(C)c2)ccc1OC(=O)c1cccs1
→ 0, 0.6%, -23, 0.6, 0, 1.0
COc1cccc(-n2c(SCC(=O)c3ccc(Cl)cc3)nc3c([nH]c4ccccc43)c2=O)c1
→ x, -2.0%, -16, x, x, 1.2
O=C1CCCC/C1=C/Nc1ccc2c(c1)OCO2
→ 1, -2.9%, -1, 2.8, -5, -1.3
Cc1c(-c2nsc(NC(=O)c3ccccc3)n2)nnn1-c1ccc(C(F)(F)F)c(Cl)c1
→ x, 7.6%, 15, x, x, -0.5
O=C(COc1ccccc1)Nc1nc(-c2cccs2)cs1
→ 1, 3.1%, -15, -0.5, 1, -0.1
CCc1cccc(N2C(=O)CSC23C(=O)N(Cc2ccccc2F)c2ccccc23)c1 (stereo not drawn)
→ x, 23%, 3, x, x, 3.2
O=c1cc(NS(=O)(=O)c2ccccc2)nc(SCc2ccccc2Cl)[nH]1
→ 3, 11%, -1, -1.6, 4, 0.0

# Three of the entries above in order of their number in CtBP-E1A blk, rising:
smiles | Six1-Eya2 inh | PINK1 modulator | TRPML1 blocker | D2 agonist | CtBP-E1A blk
COc1cc(/C=N/Nc2cccc(C)c2)ccc1OC(=O)c1cccs1 | 0 | 0.6% | -23 | 0.6 | 0
O=C(COc1ccccc1)Nc1nc(-c2cccs2)cs1 | 1 | 3.1% | -15 | -0.5 | 1
Cc1c(NS(=O)(=O)c2cccc(C(=O)Nc3ccc(SC(F)F)cc3)c2)c(=O)n(-c2ccccc2)n1C | 3 | 1.1% | 30 | 2.3 | 11

# More results.
# Second line of a record – Six1-Eya2 inh, PINK1 modulator, TRPML1 blocker, D2 agonist, CtBP-E1A blk, TRPML1 ag
O=C(O)c1cccc(-n2c(/C=C/c3ccc([N+](=O)[O-])cc3)nc3ccccc3c2=O)c1
→ -16, 0.4%, 9, -2.0, -27, 0.7
COc1ccc(C2=NN(C(=O)CSc3nnnn3C)C(c3ccco3)C2)cc1 (stereo not drawn)
→ 3, 5.1%, 10, -1.4, 4, 0.5
CC(=O)N(CN1C(=O)c2ccccc2C1=O)c1ccc2c(c1)oc1ccccc12
→ 13, 0.5%, -3, -4.6, -4, 1.3
Cc1ccc(NC(=O)CNC(C)c2ccccc2)cc1 (stereo not drawn)
→ -2, 0.0%, 4, -4.1, 0, -0.8
O=C(Cn1ncc2c3ccccc3n(Cc3ccccc3F)c2c1=O)NCc1ccccc1Cl
→ x, 2.0%, 1, x, x, 1.3
O=C(Nc1ccccc1F)c1cccc(C(=O)Nc2ccccc2F)c1
→ 4, 8.9%, -26, -1.5, 0, 2.2
CCN(Cc1ccccc1)c1ccc(/C=N/NC(=O)c2cccc(S(=O)(=O)N3CCOCC3)c2)cc1
→ 2, 3.8%, 9, -3.8, -6, 0.4
NC(=O)C1C2C=CC(C2)C1c1ccccc1 (stereo not drawn)
→ 6, -0.9%, 18, -2.4, 11, -0.6
Cc1cc(C)n2nc(SCc3ccc(C#N)cc3)nc2n1
→ -21, 2.0%, 4, -1.8, -16, -0.3
O=C(CN(C(=O)CCC(=O)Nc1nccs1)c1ccccc1F)NCCc1ccccc1
→ 9, 4.4%, -6, -0.2, 6, -0.3
CCOc1ccccc1NS(=O)(=O)c1cn(C)nc1C
→ 3, 0.0%, -9, 10, x, -0.4
NC(=O)CC(NC(=O)c1ccccc1)c1ccc(NCc2ccc(F)c(F)c2)c([N+](=O)[O-])c1 (stereo not drawn)
→ -8, 0.3%, 6, -0.6, -9, 1.8
Cc1ccc(NC(=O)C2C3C=CC4(CN(Cc5cccnc5)C(=O)C24)O3)cc1F (stereo not drawn)
→ 8, -1.9%, 0, -2.6, -17, 0.2
CC1CN(C(=O)COC(=O)Cc2ccc(Cl)cc2)CC(C)O1 (stereo not drawn)
→ 5, 3.4%, 5, 0.7, 9, -0.2
COC(=O)c1cc(-c2c(C)oc3cc(OC(C)C)ccc3c2=O)c(C)o1
→ -8, x, -3, 4.2, 3, 1.3
CC(C)NC(=O)N1Cc2cc(C(=O)NC3CCCC3)nc(-c3cccc(-c4cccnc4)c3)c2[C@H]1CCO
→ 4, -0.6%, x, x, 2, -0.7
COc1cccc(/C=C/C(=O)c2ccc(C)c([N+](=O)[O-])c2)c1
→ 5, 0.9%, 0, -4.1, 12, 0.0
CC(OC(=O)c1cccnc1SCc1cc(=O)n2ccccc2n1)c1ccccn1 (stereo not drawn)
→ -3, 0.1%[38.3 µM], -3, 2.7, -5, -0.4
CCn1c(=O)c(=O)n(CC)c2cc(S(=O)(=O)Nc3cc(C)ccc3C)ccc21
→ -3, 2.3%, 13, 9.9, 0, 2.1
O=C1C(=O)N(CC(=O)N2CCCC2)c2ccccc21
→ 0, 0.9%, -9, -8.3, 5, -0.2
Cc1ccc(-c2sc(C)nc2CC(=O)O)cc1
→ 19, -2.2%, 7, 0.0, -3, 0.9
CCOc1ccccc1OCCCCN1CCCC1
→ -2, 0.8%, -2, -1.3, 5, 2.4
Cc1onc(-c2c(F)cccc2Cl)c1C(=O)c1ccccc1
→ 11, 7.7%, 2, -1.8, 12, 2.5
O=C(c1cc(Cl)ccc1O)N1CCN(S(=O)(=O)c2cccs2)CC1
→ -13, -1.3%, 8, -1.2, -4, -0.3
CC(OC(=O)c1ccc(Cl)c(S(=O)(=O)N2CCOCC2)c1)C(=O)NC1CCCCC1C (stereo not drawn)
→ 13, 4.7%, -1, 1.0, -2, 1.4
Cc1ccc(-c2nc(CS(=O)(=O)CC(=O)NC3CCC(C)CC3)c(C)o2)cc1 (stereo not drawn)
→ -3, 1.0%, 1, -2.5, x, 2.2
Cc1c(NC(=S)Nc2ccccc2C(F)(F)F)cccc1[N+](=O)[O-]
→ 10, -0.9%, 20, -7.5, -2, 0.0
CC(=O)Nc1ccc(N2CCC(C)CC2)c([N+](=O)[O-])c1
→ -7, 2.6%, -21, -1.2, -2, 4.0
CCN(CC(=O)N1CCOCC1)S(=O)(=O)c1ccc2ccccc2c1
→ 3, 1.0%, -12, -3.9, 0, 0.9
COc1ccc(C)cc1S(=O)(=O)Nc1cc2c3c(c1)CC(=O)N3CCC2
→ -7, 0.7%, 33, 6.7, -3, 0.0
CCOc1ccc(N2C(=O)Nc3ccc(Br)cc3C2(O)C(=O)NC(C)C)cc1 (stereo not drawn)
→ 1, 1.4%, 8, 2.7, 11, 1.8
CCOC(=O)c1cc2sccc2n1CC(=O)N1CCc2ccccc21
→ 5, 5.5%[38.3 µM], -10, -1.2, 2, 1.0
COc1ccc(-c2nc(CCNC(=O)Cc3ccc(F)cc3)cs2)cc1
→ x, 1.8%, -12, x, x, 1.0
C[C@H]1CN([C@@H](C)CO)C(=O)Cc2cc(NS(=O)(=O)c3ccc(Cl)cc3)ccc2O[C@@H]1CN(C)C(=O)Nc1cccc2ccccc12
→ -6, 1.4%, 14, 2.3, 0, -0.1
Cc1cc(S(=O)(=O)ON2C(=O)c3ccccc3C2=O)ccc1F
→ 3, 4.3%, 1, -3.2, x, -0.1
CCC(=O)N(c1nnc(SCC(=O)Nc2sccc2C(N)=O)s1)C1CC1
→ 0, 0.1%, -7, -1.0, -2, 0.0
CCCN(CC(=O)Nc1ccccc1C)CC(=O)Nc1ccc(Br)cc1F
→ 0, 0.0%, 13, 0.3, 11, 3.0
c1ccc(C(=NNc2nc3ccccc3s2)c2ccccn2)cc1
→ u, -6.3%, 3, -6.4, u, 7.9
Cc1ccc(C(=O)C=Cc2ccc3c(c2)OCO3)c(C)c1
→ 5, -0.7%, 50, -3.9, 0, 2.4
O=C(NCCc1ccccc1C(F)(F)F)C1CCC(=O)N(CCCN2CCCC2=O)C1 (stereo not drawn)
→ 1, 0.8%, -10, 5.0, 3, -0.1
